Compound activity (PubChem)
Sfp PPTase inh: qHTS Assay for Inhibitors of Bacillus subtilis Sfp phosphopantetheinyl transferase (PPTase). AID 1490, 2009. 4'-phosphopantetheinyl transferase ffp (Bacillus subtilis), Q9F4F7. actives 3.5% (n = 310,000). Potency, µM, for inactives: max response, negative = inhibition, hits mostly inhibitors. Biochemical Sfp PPTase activity, qHTS; active means well fitted inhibition curve with a large enough effect; inconclusive means small, poorly fitted or top-dose-only effect, or another doubt; inactive means no such curve, though single readings can be large or run the other way;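 further: the enzyme is Sfp with the accession as filed and its product quenches rhodamine fluorescence; potency means the concentration at half of the fitted maximal effect; 0% = enzyme reaction without inhibitor and -100% = no enzyme wells; top concentration of the series not given in the record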
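Fluorescence-quenching assay: 15 nM Sfp-PPTase preincubated 15 min at room temperature with compound, then 5 uM rhodamine-CoA and 12.5 uM BHQ-2-labelled YbbR peptide added. Fluorescence (ex 525/em 598 nm) read at start and after 30 min; difference gives rate.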
gsp antagonist: qHTS for Antagonists of gsp, the Etiologic Mutation Responsible for Fibrous Dysplasia/McCune-Albright Syndrome: qHTS; gsp-mutant cells, cAMP HTRF, 30 min; control for the full effect not named in the record; actives 0.4% (n = 340,000); Potency, µM (doses to about 76.9 µM), inactives show at the highest dose activity change, negative = inhibition, most hits filed as inhibitors; active = falling curve of any shape with a large fitted effect; inconclusive = falling curve, mostly with a smaller effect; inactive = flat or rising curve; cell line not stated here;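 further: intracellular cAMP measured with PDE inhibitor Ro 20-1724 present during compound exposure; potency means the concentration at half of the fitted maximal effect; on the % scale 0 is the no-effect control and ±100 the full control effect; nearly all actives have a fitted effect of over 65% in size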
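Measurement of cellular cAMP by homogeneous time-resolved fluorescence following a 30 min compound exposure at 37C. The PDE inhibitor […] was present throughout; the assay buffer was DPBS with 0.05% BSA and 0.005% Tween 20.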
D2 ag: Beta-Arrestin HTS for Positive Allosteric Modulators of the Human D2 Dopamine Receptor: Agonists; D(2) dopamine receptor (Homo sapiens), P14416; DiscoveRx PathHunter D2 beta-arrestin, luminescence, 90 min; 100% = 57 uM dopamine signal; activation, % (concentration not given with the values); actives 0.084% (n = 360,000); AID 624465, 2012; in the data active = activation above about 40%; inconclusive = about 15% to 40%; inactive = below about 15%; further: compound concentration not given in the record; the text of the record calls up to 30% inactive
Target sequence (P14416 whole entry, looked up): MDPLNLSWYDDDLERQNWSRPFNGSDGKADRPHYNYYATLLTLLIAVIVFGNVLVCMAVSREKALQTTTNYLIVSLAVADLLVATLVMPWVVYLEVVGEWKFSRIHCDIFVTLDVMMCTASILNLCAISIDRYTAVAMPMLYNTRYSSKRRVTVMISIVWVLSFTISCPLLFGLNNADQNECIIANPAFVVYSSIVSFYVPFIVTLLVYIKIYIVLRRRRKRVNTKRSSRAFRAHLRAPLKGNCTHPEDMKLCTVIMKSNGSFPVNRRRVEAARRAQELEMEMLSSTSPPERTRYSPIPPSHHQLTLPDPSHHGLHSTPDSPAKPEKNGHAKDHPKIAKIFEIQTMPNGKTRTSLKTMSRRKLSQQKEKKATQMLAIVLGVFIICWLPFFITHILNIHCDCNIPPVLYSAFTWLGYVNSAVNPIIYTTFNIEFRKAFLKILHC
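Agonist mode: compounds alone added to overnight-plated D2 PathHunter cells for 90 min at 37 C, with 57 uM final dopamine (EC100) defining full response. Beta-arrestin recruitment detected by chemiluminescent reagent, read after 1 h at ambient temperature.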
ClpP mod: qHTS Assay for Activators of ClpP; Potency, µM (series often up to 57.5 µM), for the others: at the top dose activity change, negative = active; actives 1.9% (n = 340,000); ATP-dependent Clp protease proteolytic subunit (Bacillus subtilis (strain 168)), P80244; purified B. subtilis ClpP, FRET peptide cleavage, 20 min; active = well fitted falling curve with a large enough effect; inconclusive = small, poorly fitted or top-dose-only effect; inactive = no such curve, though single readings can be large or run the other way; further: potency means the concentration at half of the fitted maximal effect; the source files actives as falling curves though it sought activators and does not explain the sign; nearly all actives have a fitted effect of over 65% in size; many hits overshoot -100%
Target sequence (P80244 whole entry, looked up): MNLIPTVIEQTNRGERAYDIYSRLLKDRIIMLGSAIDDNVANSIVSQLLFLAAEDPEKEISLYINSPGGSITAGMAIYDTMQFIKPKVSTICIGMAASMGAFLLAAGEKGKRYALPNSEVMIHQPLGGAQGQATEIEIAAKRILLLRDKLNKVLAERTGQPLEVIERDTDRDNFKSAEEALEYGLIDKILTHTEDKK
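ClpP 10 microg/mL final, pH 8 Tris/KCl buffer with BSA, glycerol, Tween-20; compound pinned in; FRET-FV substrate; RT 20 min; Ex320/Em430; ΔFRET vs ADEP 5.8 microM, DMSO, no enzyme.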
PINK1 expr mod: A Quantitative High throughput Screen to Identify Chemical Modulators of PINK1 Expression | PINK1 immunofluorescence, high-content cytometry, 24 h | Potency, µM (highest dose often 76.6 µM), inactives show at the top dose activation (PINK1 increase), hits mostly activators | actives 0.2% (n = 410,000); active = well fitted activation curve with a large enough effect; inconclusive = small, poorly fitted or top-dose-only effect; inactive = flat fitted curve, though single readings scatter; cell line not stated here;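 further: potency means the concentration at half of the fitted maximal effect; % of control where 0% means no effect; nearly all actives have a fitted effect of over 65% in size; a mitochondrial uncoupler was the plate control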
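Stable cell line, 250 cells/well, 12 h attachment; compounds pinned at 5 concentrations, 24 h; CCCP control. Fixed with nuclear dye, primary antibodies 12 h at 10 degrees C, secondary plus cell stain; laser-scanning cytometer read.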
gsp ag: qHTS for Agonist of gsp, the Etiologic Mutation Responsible for Fibrous Dysplasia/McCune-Albright Syndrome: qHTS; actives 0.13% (n = 340,000); Potency, µM (highest dose often 76.9 µM), without a hit: top-dose activation (cAMP increase), hits mostly activators; AID 624287, 2012; gsp mutant cells, cAMP HTRF, 30 min; control for the full effect not named in the record; active = well fitted activation curve with a large enough effect; inconclusive = small, poorly fitted or top-dose-only effect, or another doubt; inactive = no such curve, though single readings can be large or run the other way; cell line not stated here;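 further: phosphodiesterase inhibitor Ro 20-1724 added with compounds to block cAMP breakdown; potency means the concentration at half of the fitted maximal effect; nearly all actives have a fitted effect of over 60% in size; about a fifth of the inactives were tested at one dose only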
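Cells in DMEM/10% FBS with G418 were pretreated with compounds in DMSO plus […] (300 uM stock) for 30 min at 37C. cAMP was measured by HTRF (cAMP-d2 plus anti-cAMP antibody-K) after 30 min at room temperature.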
Menin-MLL FL inh: qHTS Assay for Inhibitors Targeting the Menin-MLL Interaction in MLL Related Leukemias: Competition With Fluorescein Labeled MLL-derived Peptide. Fluorescence polarization, fluorescein-MLL peptide displacement from menin. FP activity change, % at 61.4 µM. 290,000 tested, under 10 active; inconclusive = falling polarisation curve, or a change in total fluorescence; inactive = total fluorescence flat and polarisation flat or rising; no compound was filed as active; the % refers to the polarisation; negative = inhibition;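 further: % of control where 0% means no effect; inhibitors lower the polarisation; unlabelled MLL peptide was the positive control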
Numbers without * were called inactive; ? = inconclusive; · = no result given; & = joins results of further samples; [ ] = remark or other dose. Not a hit list; any-hit rate near 5.1%.

cpd	SMILES	Sfp PPTase inh	gsp antagonist	D2 ag	ClpP mod	PINK1 expr mod	gsp ag	Menin-MLL FL inh
1	Cc1ccc2c(c1)N(CC(=O)NCCCN1CCCCC1C)C(=O)c1cccnc1O2 (stereo unspecified)	7%	19%	-5.4	0.6%&2.1%	1.6%&0.1%	20%	·
2	Cc1ccc(-c2nnc(N(C)C(=O)c3ccncc3)s2)cn1	16%	11%	-3.0	59%	0.5%	-12%	2.9
3	OC(c1ccc(F)cc1)c1nc(-c2ccc(Cl)cc2)cs1 (stereo unspecified)	·	·	-0.9	-5.9%	11%	·	·
4	O=C(CN1C(=O)S/C(=C/c2cccs2)C1=O)N1CCOCC1	-15%	4%	1.5	0.5%	-1.0%	0%	-0.9
5	CCc1nnc(NS(=O)(=O)c2ccc(N/C=C\C(=O)c3ccc(C)cc3)cc2)s1	7%	-29%	0.1	-2.6%	1.9%	?	4.8
6	COc1ccc(S(=O)(=O)N(CC(N)=O)C2CCCCC2)cc1Cl	1%	2%	-1.1	-1.6%	-0.6%	4%	0.2
7	Clc1ccc(-c2nc3n(n2)Cc2ccccc2-3)cc1	1%	-6%	-4.7	-0.9%	2.9%	0%	2.7
8	Cn1c(=O)[nH]c(=O)c2c1nc(CN1CCOCC1)n2Cc1ccc(F)cc1	10%	-1%	-4.2	-1.6%	-0.4%	?	1.8
9	Cc1cc(-c2nnc(SCC(=O)Nc3ccccc3F)n2N)n[nH]1	-3%	-1%	-1.3	-0.7%	-0.8%	-57%	·
10	CCc1cc2c(=O)oc(-c3ccc(F)cc3)nc2s1	1%	-20%	0.4	0.5%	0.7%	-6%	3.3
11	CN(C(=O)Cn1c(=O)oc2ccccc21)C1CCCCC1	·	11%	-0.9	0.7%	-0.2%	-11%	·
12	Cc1ccc(-n2nnnc2SCC(=O)Nc2ccc(N3CCN(C)CC3)cc2)c(C)c1	-7%	-1%	-0.9	-1.0%	0.9%	?	·
13	O=S(=O)(c1cccc(Cn2nnc(-c3ccccc3)n2)c1)N1CCOCC1	·	?	6.4	-1.0%	0.4%	?	·
14	CN(C)CCNC(=O)Nc1ccc([N+](=O)[O-])cc1	4%	12%	-1.7	1.4%	-1.4%	-39%[inhibitor]	-2.4
15	CC(=O)c1c(N2CCCCC2)nc(=S)n(Cc2ccccc2)c1C	12%	-24%	-0.3	0.6%	1.2%	?	3.8
16	COc1ccc(C(=O)N(C)CC(O)c2ccccc2)cc1OC1CCN(C(C)=O)CC1 (stereo unspecified)	-6%	5%	0.8	0.6%	-0.5%	?	·
17	O=C(Cc1ccc2c(c1)OCCO2)N/N=C/c1ccco1	·	7%	-1.3	-1.9%	0.2%	?	·
18	Cc1cc(NC(=O)Cc2ccccc2C)no1	13%	-4%	-1.5	0.1%	-1.5%	-30%	-1.0
19	OCCC1CN(Cc2cnc(N3CCCC3)s2)CCN1Cc1ccccc1 (stereo unspecified)	-2%	10%	0.1	·	0.6%	1%	6.3
20	O=C(NCC(O)c1ccccc1)Nc1cccs1 (stereo unspecified)	-7%	-11%	-1.3	0.2%	0.6%	13%	10
21	COc1cc2c(cc1OC)CN(C(=O)c1cc(S(=O)(=O)N3CCOCC3)ccc1Cl)CC2	-10%	1%	-1.8	0.4%	0.9%	1%	-0.7
22	COc1ccc(NC(=S)N2CCN(C(=O)c3ccccc3)CC2)cc1	0%	·	0.3	·	1.6%	4%[15.4 µM]	1.8
23	CC(=O)c1ccc(N2CCN(C(=O)COc3ccc4c(c3)CCC4)CC2)cc1	2%	-24%	2.7	-7.9%	-0.9%	-8%	·
24	Cc1cccc(NC(=O)CSCc2cc(=O)n3nc(C4CC4)sc3n2)c1	13%	-1%	-0.2	-3.3%	1.0%	2%	·
25	COc1ccc(C2=NN(C(=O)CCC(=O)O)C(c3ccc(OC)c(OC)c3)C2)cc1 (stereo unspecified)	11%	4%	3.1	-1.6%	-0.6%	-11%[15.4 µM]	-1.9
26	CN(C)Cc1ccccc1-c1cccc2nccn12	·	·	-5.1	4.6%	2.3%	·	·
27	CCOC(=O)c1ccccc1-c1csc(N)n1	-4%	10%	-2.9	·	-0.3%	7%[15.4 µM]	0.2
28	COc1ccc(NC(=O)C(=O)NCC(c2ccco2)N2CCc3ccccc3C2)cc1 (stereo unspecified)	·	7%	3.5	-2.2%	18%	-54%[inhibitor]	·
29	CCCCN(CCCC)Cc1ccc(C(=O)NN)o1	6%	7%	-4.5	0.2%	2.5%	15%	2.3
30	CN(C)/C(CN1CCOCC1)=C1\N=C(c2ccccc2)OC1=O	2%	-8%	-0.8	-0.8%	1.1%[38.3 µM]	?	0.5
31	Cc1ccc(C)c(NC(=O)CN(C)S(=O)(=O)c2cccc3cccnc23)c1	?	-1%	-1.1	0.6%&-0.1%	4.0%&0.0%	-7%	2.0
32	O=C(NCCNc1nccc(C(F)(F)F)n1)c1cccc(C(F)(F)F)c1	5%	4%	-5.2	0.8%	1.3%	-14%[15.4 µM]	2.1
33	COc1ccccc1OCCn1cc(/C=C(\C#N)C(=O)NCc2ccco2)c2ccccc21	-3%	-12%	-1.8	-4.0%	13%	11%	3.0
34	COc1ccc(OC)c(C(=O)c2coc3ccc(OC)cc23)c1	-13%	-10%	-1.6	-6.2%	0.4%	-39%[inhibitor]	8.0
35	CC(C)(C)OC(=O)NC(Cc1ccccc1)C(=O)O (stereo unspecified)	8%	14%	-1.6	-3.5%	-0.5%	-21%	-0.2
36	c1ccc(COc2cccc(-c3cc4nc(NCc5cccs5)ccn4n3)c2)cc1	·	·	11	4.9%	1.6%	·	·
37	O=C(CNc1cccc2ccccc12)N/N=C/c1ccc([N+](=O)[O-])o1	-13%	-11%	-0.8	0.1%	19%	?	-0.3
38	CCOC(=O)c1cc(-c2ccc3c(c2)OCCO3)n[nH]1	13%	-7%	7.4	·	-0.1%	?	1.2
39	COc1cccc(Oc2cn[nH]c2-c2ccc(OCC(=O)NN)cc2O)c1	9%	-16%	10	-2.7%	-0.1%	-22%	-1.4
40	O=C(COc1ccccc1)Nc1ccc(-c2nnc(-c3ccco3)o2)cc1	11%	-3%	-1.7	20µM*	9.7%	-12%	4.7
41	CN1C(C(=O)Nc2cccc(O)c2)=CC(c2cccs2)=NS1(=O)=O	14%	-14%	-4.3	-2.1%&-3.1%	2.6%&-1.0%	25%	2.2
42	CCOC(=O)c1c(C)n(C)c2ccc(O)c(S(=O)(=O)c3ccccc3)c12	-11%	1%	-3.6	-13%	-2.2%[38.3 µM]	-33%[inhibitor]	-1.2
43	NNC(=O)c1ccc(Cn2cccn2)o1	20%	4%	-2.4	·	1.1%	-29%[15.4 µM]	4.5
44	CCCN1C2CCCC1CC(NC(=O)NC1CCCCC1)C2 (stereo unspecified)	12%	8%	-3.4	0.2%	-2.9%	-4%	6.1
45	CC1=CC2=NC(=O)CC(C)(C(=O)N(CC(=O)NC(C)(C)C)Cc3cccs3)N2C=C1 (stereo unspecified)	23%	5%	-2.4	5.4%	19%[38.3 µM]	-13%	6.6
46	Cc1ccc(NC(=O)CSc2nc3ccccc3nc2N2CCOCC2)c(C)c1	-6%	-5%	0.5	18%	4.7%	?	11
47	CCOC(=O)COc1cccc2c(=O)n(CC(N)=O)ccc12	9%	3%	-4.1	3.8%	3.7%	4%	1.7
48	Cc1ccc(C(=O)NCc2ccco2)cc1Br	2%	-8%	-2.7	-0.1%	2.9%[38.3 µM]	?	-1.4
49	CCC(=O)N1CCc2cc(S(=O)(=O)NC(CC(C)C)C(=O)N3CCc4ccccc43)ccc21 (stereo unspecified)	0%	-15%	-1.5	-4.3%	1.2%[38.3 µM]	-41%[inhibitor]	0.0
50	CN(C)C(=O)CCc1ccc2c3c([nH]c2c1)[C@]1(C)[C@@H](C(=O)N2CCCCC2)C[C@H](CC(=O)NCc2ccco2)C(=O)N1CC3	·	-4%	-0.9	-3.0%	-0.8%	·	·

(listing goes on)
cpd	SMILES	Sfp PPTase inh	gsp antagonist	D2 ag	ClpP mod	PINK1 expr mod	gsp ag	Menin-MLL FL inh
51	O=C1CCN(S(=O)(=O)c2ccccc2)N1	8%	18%	-1.8	-0.7%	-1.0%	6%[15.4 µM]	4.2
52	c1ccc(-c2nc(CSc3nnnn3-c3ccccc3)cs2)cc1	5%	?	-0.7	-4.8%	2.6%[38.3 µM]	6%	2.7
53	CC(Nc1nc(-c2ccc(F)cc2)cs1)c1nc2cc(Cl)c(Cl)cc2n1CCOCCO (stereo unspecified)	·	-8%	-1.9	-4.7%	1.5%	-37%[inhibitor]	·
54	CC1CC(=O)N(CC(=O)Nc2ccc(Br)cc2)c2ccccc2S1(=O)=O (stereo unspecified)	9%	-11%	1.2	2.7%	2.1%	0%	6.6
55	Cc1ccc(C2CCN(C(=S)NC(C)(C)C)C2)cc1 (stereo unspecified)	3%	2%	-1.3	0.1%	1.7%	11%	-1.9
56	O=C(CCC(=O)N/N=C/c1ccco1)N/N=C/c1ccco1	11%	3%	-2.8	-0.9%	-1.8%	-1%[15.4 µM]	-2.1
57	COc1cc(NC(=O)C2CC(c3ccc(Cl)cc3)=NO2)cc(OC)c1OC (stereo unspecified)	6%	-7%	4.1	-0.3%	-1.2%	-23%	-2.8
58	Cc1cc(C(C)(C)C)oc1C(=O)N(CC(=O)NC1CCCC1)Cc1ccc(F)cc1	8%	-3%	-1.5	0.2%	2.5%[38.3 µM]	-14%	2.5
59	COc1ccc(CN=C(C#N)C2=C(O)c3ccccc3C2=O)cc1	3%	-13%	-6.5	-2.1%	3.9%	-21%	-1.8
